Bioassay records deposited in PubChem by National Center for Advancing Translational Sciences (NCATS).
PINK1 modulator: modulators of PINK1 expression. PINK1 immunofluorescence, high-content cytometry, 24 h. AID 624263. actives 0.2% (n = 410,000). Potency, µM (top dose mostly 76.6 µM), for inactives: top-dose activation (PINK1 increase), hits mostly activators; active = well fitted activation curve with a large enough effect; inconclusive = small, poorly fitted or top-dose-only effect; inactive = flat fitted curve, though single readings scatter; cell line not stated here;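 further: potency means the concentration at half of the fitted maximal effect; % of control where 0% means no effect; nearly all actives have a fitted effect of over 65% in size; a mitochondrial uncoupler was the plate control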
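Decision-based qHTS: stable cells, 24 h exposure to five compound concentrations, CCCP as control. Fixed cells stained for PINK1 plus nuclear, mitochondrial and cell markers, cytometer read.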
Six1-Eya2 inh: Six1/Eya2 interaction inhibition; AlphaScreen GST-Six1/His-Eya2 binding, biochemical; stronger effect = lower value; control for the full effect not named in the record; activity change, % (no concentration beside the values); actives 0.56% (n = 360,000); AID 651725; in the data active = activity change below about -65%; inconclusive = about -30% to -65%; inactive = above about -30%; further: on the % scale 0 is the no-effect control and ±100 the full control effect; compound concentration not given in the record
Target sequence (O00167 whole entry, looked up): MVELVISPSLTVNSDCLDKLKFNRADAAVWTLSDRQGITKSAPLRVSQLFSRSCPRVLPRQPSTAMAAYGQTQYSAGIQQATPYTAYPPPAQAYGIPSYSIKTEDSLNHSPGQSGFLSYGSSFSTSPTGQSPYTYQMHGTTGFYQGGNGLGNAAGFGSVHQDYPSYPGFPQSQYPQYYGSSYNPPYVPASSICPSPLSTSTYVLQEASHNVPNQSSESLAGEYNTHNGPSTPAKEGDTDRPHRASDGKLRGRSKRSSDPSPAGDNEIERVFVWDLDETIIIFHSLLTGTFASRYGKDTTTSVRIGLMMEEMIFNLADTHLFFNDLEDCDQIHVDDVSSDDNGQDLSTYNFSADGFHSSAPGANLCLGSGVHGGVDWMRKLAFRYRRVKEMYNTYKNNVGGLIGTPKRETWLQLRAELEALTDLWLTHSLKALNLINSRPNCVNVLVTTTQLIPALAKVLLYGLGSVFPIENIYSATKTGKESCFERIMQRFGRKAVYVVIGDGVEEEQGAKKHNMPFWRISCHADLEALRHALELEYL
Target sequence (Q15475 whole entry, looked up): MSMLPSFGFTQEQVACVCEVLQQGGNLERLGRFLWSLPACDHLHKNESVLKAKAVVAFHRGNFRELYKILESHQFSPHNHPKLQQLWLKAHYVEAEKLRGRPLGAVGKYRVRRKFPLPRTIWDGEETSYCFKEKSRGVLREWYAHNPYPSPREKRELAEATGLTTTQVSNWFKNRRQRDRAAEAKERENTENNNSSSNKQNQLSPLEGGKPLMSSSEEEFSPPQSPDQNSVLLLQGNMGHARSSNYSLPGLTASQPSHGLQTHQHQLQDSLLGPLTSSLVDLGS
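Homogeneous AlphaScreen proximity assay pairing GST-Six1 with His-tagged Eya2 (added as 5X mix: 250 nM and 500 nM) in 50 mM Tris pH 8.0, 300 mM NaCl, 1 mM TCEP. Glutathione donor and nickel acceptor beads; 1 h, 37 °C, dark.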
TRPML1 blocker: inhibitors of human TRPML1 channel; activity change, negative = inhibition, % (test concentration not listed); Q9GZU1; TRPML1-inducible cells, Ca2+ dye fluorescence, FDSS; stronger effect = lower value; inhibition of EC80 agonist-evoked calcium signal; actives 0.02% (n = 390,000); AID 624415; in the data active means activity change below about -50%; inconclusive means about -30% to -50%; inactive means above about -30%;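 further: stimulus is agonist 54-4 at its EC80 concentration; on the % scale 0 is the no-effect control and ±100 the full control effect; compound concentration not given in the record; the text of the record puts the active cut at -80%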
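Calcium fluorescence in TRPML1-DL cells induced overnight with Tet: a 110 s read after compound pin addition, then a 110 s antagonist read after challenge with 54-4 at 4 uM final (EC80).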
D2 ag: activates the human D2 dopamine receptor. P14416. DiscoveRx PathHunter D2 beta-arrestin, luminescence, 90 min; 100% = 57 uM dopamine signal. activation, % (concentration not given with the values). actives 0.084% (n = 360,000). AID 624465; in the data active = activation above about 40%; inconclusive = about 15% to 40%; inactive = below about 15%; further: compound concentration not given in the record; the text of the record calls up to 30% inactive
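DiscoveRx PathHunter D2 beta-arrestin cells (2,100/well) attached overnight, then compound-stimulated 90 min at 37 C in HBSS/10 mM HEPES/0.1% Tween-20 buffer; beta-galactosidase complementation read by luminescence after 1 h at ambient temperature. Dopamine 57 uM final (EC100) as control.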
D2 PAM: positive allosteric modulators of human D2 dopamine receptor; P14416; DiscoveRx D2 beta-arrestin cells, luminescence, 90 min; 100% = 57 uM dopamine signal; potentiation, % (no concentration beside the values); actives 0.23% (n = 360,000); AID 624464; active = potentiation of 50% or more; inconclusive = 30% to 50%; inactive = 30% or less;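 further: compound concentration not given in the record; tested on top of an EC20 dose of dopamine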
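PathHunter D2 cells, attached overnight at 37 deg C, received compound in DMSO plus dopamine at EC20 (50 nM final) for 90 min at 37 deg C. Beta-arrestin recruitment was read as luminescence after 1 h with detection reagent at ambient temperature.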
TRPML1 ag: activates the human TRPML1 channel; Q9GZU1; TRPML1-expressing cells, Ca2+ dye fluorescence, FDSS; host cell line not named in the record; reference of the full effect not given here; activation, % (test concentration not listed); actives 0.12% (n = 410,000); in the data active = activation above about 50%; inconclusive = about 30% to 50%; inactive = below about 30%; further: 0% is about no effect; the text of the record puts the active cut at 80%
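Calcium fluorescence on an FDSS kinetic reader gave the read-out. Tet-induced TRPML1-DL cells were plated overnight, dye-loaded (Ca8 with quencher, 45-90 min, room temperature, dark), then read 110 s after compound addition, and again 110 s after 4uM final 54-4 (EC80).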
* hit, by the source's call; ? = inconclusive; . = no result given; & = joins results of further samples; [ ] = dose if it differs, or a comment.

SMILES	PINK1 modulator	Six1-Eya2 inh	TRPML1 blocker	D2 ag	D2 PAM	TRPML1 ag
COc1cc(CO)ccc1Oc1nnnn1-c1ccc(C(N)=O)cc1	9.2%[38.3 µM]	1	5	-0.9	-6	-0.3
COC(=O)c1c(NC(=O)Cn2nc(C(F)F)cc2C(F)F)sc(C)c1C	2.1%	4	-6	5.4	3	3.5
O=C(NC(=S)NCc1ccc(Cl)cc1)c1ccco1	1.6%	3	-4	-1.5	-8	2.7
OC(c1ccccc1)C(NCc1ccccc1)c1ccccc1 (configuration not stated)	5.1%	8	-4	-3.5	-21	-0.2
COc1c(C)cc(C(=O)C2CCCN(C(=O)c3cc4nc(C)cc(C)n4n3)C2)cc1C (configuration not stated)	0.4%	-3	0	-1.6	-3	0.2
COc1ccc(C(=O)/C=C/c2ccccc2F)c(OC(=O)c2ccc([N+](=O)[O-])cc2)c1	-2.7%	-6	-8	-3.2	-10	0.1
Cc1ccc2c(=O)c(C(=O)c3ccc(F)cc3)cn(CC(=O)Nc3ccc4c(c3)OCCO4)c2n1	-0.4%	.	-8	.	.	-0.2
CCOc1ccccc1NC(=O)C1C(c2ccccc2)C1(Cl)Cl (configuration not stated)	3.3%	11	38	-1.7	-4	1.9
O=S1(=O)CCN(C2CC2)CC1	0.0%	-9	-13	0.3	0	-0.1
CCc1nn2c(=O)cc(COC(=O)C(CC)c3ccccc3)nc2s1 (configuration not stated)	1.3%	.	1	.	.	-0.4
C=CCc1ccccc1OCC(=O)NNC(=S)NCc1ccccc1	6.0%	-9	9	-4.2	-16	0.6
O=C(NC1CCCc2ccccc21)c1cccnc1 (configuration not stated)	-0.3%	-4	6	-3.8	13	-0.5
Cc1oc2c(c1C(=O)Nc1ccc(C(=O)O)cc1)CCCC2	-1.3%	2	-4	-0.3	-8	-0.3
C=CCn1c(SCC(=O)Nc2nnc(CC)s2)nnc1-c1ccco1	-1.5%	-2	7	-2.3	6	0.2
C=CCN(c1ccccc1)S(=O)(=O)c1c(C)[nH]c(=O)[nH]c1=O	-0.1%	4	16	-3.1	0	0.2
CCCOc1ccc(C(F)(F)F)cc1NC(=O)c1cc(C)on1	1.5%	8	12	-1.3	-3	1.1
COc1ccc(CCNC(=O)C2CCCN(S(=O)(=O)c3ccc(OC)cc3)C2)cc1 (configuration not stated)	-0.2%	11	-12	-1.0	-7	1.3
COc1ccc(CCN2C(=O)c3ccccc3C2c2nnnn2-c2ccc3c(c2)OCCO3)cc1OC (configuration not stated)	3.0%	27	.	.	.	-0.3
COc1ccc(/C(N)=N/OC(=O)Cc2cccs2)cc1	-1.4%	30	4	1.3	-2	-0.9
Cc1ccc(-c2nc(S(=O)(=O)c3ccc(C)cc3)c(N3CCOCC3)o2)cc1	2.2%	2	-5	-2.2	-12	-0.4
C[C@@H](CN1C2=NC[C@H](Cc3ccccc3)N2C[C@H]1Cc1ccc(O)cc1)NC(=O)CCC1CCCCC1	0.4%	-13	20	-2.6	-30	-0.3
COC(=O)c1ccccc1NC(=O)CCC(=O)N1CCSc2ccccc21	-0.3%	-1	-1	1.4	-3	1.7
CNC(=O)C1CC(=O)N(c2ccc(OCC(=O)Nc3ccc(F)cc3)cc2)C1 (configuration not stated)	1.1%	11	24	-3.8	-6	0.6
CCOc1cc(C(=O)OCc2cc(=O)n3nc(CC)sc3n2)cc(OCC)c1OCC	0.1%	.	9	.	.	-0.2
Cc1ccc(O)c(NC(=S)NC(=O)c2ccccc2Cl)c1	2.1%	-16	14	-1.0	-6	0.5

As entered above.
CCCOc1ccc(C(F)(F)F)cc1NC(=O)c1cc(C)on1 in PINK1 modulator = 1.5%
Cc1ccc2c(=O)c(C(=O)c3ccc(F)cc3)cn(CC(=O)Nc3ccc4c(c3)OCCO4)c2n1 in PINK1 modulator = -0.4%

(further entries)
SMILES	PINK1 modulator	Six1-Eya2 inh	TRPML1 blocker	D2 ag	D2 PAM	TRPML1 ag
CCOc1ccccc1NC(=O)Cn1c2ncccc2c(=O)n1-c1ccc(C)c(C)c1	0.0%	.	-23	.	.	0.4
CCc1ccc2c(c1)C(=O)CCC2	1.6%	5	2	3.3	-2	-0.4
O=C(Nc1ccccc1Cl)N1C2CCC1CC(O)(c1cccnc1)C2 (configuration not stated)	-1.9%	7	9	-5.9	-1	4.3
CC(=O)c1ccccc1NC(=O)c1ccc2c(c1)NC(=O)C(C)S2 (configuration not stated)	-3.1%	0	8	3.2	-1	2.7
CC1(C)CC(=O)c2sc(NS(C)(=O)=O)nc2C1	3.0%[38.3 µM]	5	1	-1.0	-9	0.9
Nc1cc2c(cc1[N+](=O)[O-])-c1ccccc1C2=NO	-1.8%	?	-7	-5.9	-23	0.2
CC(Oc1ccc2c3c(c(=O)oc2c1)CCC3)C(=O)N[C@@H](Cc1ccccc1)C(=O)O (some centres not stated)	0.5%	3	.	-1.8	-5	.
CC(C)N=C1SCC(C)(/C=N/O)S1 (configuration not stated)	-2.9%[38.3 µM]	3	52	0.9	-2	0.8
COCCNC(=O)c1cccc2c1C(=O)c1ccc(N3CCOCC3)cc1S2(=O)=O	0.2%	3	12	-2.4	-11	2.0
COc1ccc(Cl)cc1NC(=O)CN(C)C(=O)CCNC(=O)c1ccccc1OC	0.5%	5	6	-2.2	-22	-1.1
Cc1ccc(-n2nc3c(=O)n(C(C)C(=O)NCc4ccco4)nc(C)c3c2C)cc1 (configuration not stated)	-0.1%&-0.1%	0	-7&-12	-7.4	-11	0.6&1.2
Cc1nc2nc(-c3ccccc3)cn2nc1C	.	-2	-1	-3.0	2	0.4
O=Cc1cn[nH]c1-c1cccc([N+](=O)[O-])c1	-1.3%	-2	-5	-0.3	-5	3.4
O=C(O)c1ccc(Sc2nnc(-c3cccc(Br)c3)o2)c([N+](=O)[O-])c1	-2.7%	-1	-6	-0.4	8	0.0
Cc1cc(Oc2ccc(OCC(N)=O)nn2)nc(Cl)n1	1.5%	5	32	-3.1	-4	-0.2
Cc1ccccc1CC(=O)N1CCN(C(=O)C2CCCO2)CC1 (configuration not stated)	2.5%	3	6	10	-4	0.8
CCc1c(C(=O)N2CCCN(C)CC2)csc1C	-0.3%	2	11	-0.2	-43	0.3
CC(C)n1c(CCC(=O)O)ccc1-c1ccccc1	-0.1%	-1	-14	-1.3	-9	0.0
O=C(NNc1nc2ccccc2s1)C1CC1	5.1%[38.3 µM]	7	-15	2.3	-22	0.0
CC(=O)c1cccc(OCC(=O)N(CCC2=CCCCC2)c2c(N)n(Cc3ccccc3)c(=O)[nH]c2=O)c1	-1.6%	0	11	-4.1	-29	0.6
Cc1ccc(F)cc1NC(=O)c1cccc(N(C)C)c1	0.5%	-4	3	-2.9	-14	0.6
CCCCSc1nnc(C)c(=O)[nH]1	-1.0%	0	0	-3.5	3	-0.6
CCc1ccc(NC(=O)N(CCN(C)C)C(C)c2cccnc2)cc1 (configuration not stated)	0.2%	3	-7	-1.0	-3	-0.7
COc1ccc(NC(=O)CN(Cc2ccccc2)S(C)(=O)=O)c(OC)c1	6.3%[38.3 µM]	2	-7	0.7	5	0.0
Cc1cc(C)cc(-n2ccn(Cc3ccccc3C)c(=O)c2=O)c1	2.6%	.	-15	.	.	0.1

(listing goes on)
SMILES	PINK1 modulator	Six1-Eya2 inh	TRPML1 blocker	D2 ag	D2 PAM	TRPML1 ag
COc1ccc(CNCCc2ccc([N+](=O)[O-])cc2)c(OC)c1OC	1.0%	7	.	-4.5	-44	.
CN(CC(=O)NCc1ccccc1)CC(=O)Nc1ccc(Cl)c(C(F)(F)F)c1	2.6%	-2	-11	7.2	-1	0.9
CCOc1ccc(CCNC(=O)CSc2n[nH]c(N)n2)cc1OCC	2.9%	2	11	-2.1	-27	0.0
Cc1nc2c(c3c1[nH]c1ccccc13)C(O)CC(C)(C)C2 (configuration not stated)	2.6%	-6	12	-4.9	-2	0.0
CCOC(=O)c1sc2nc(CSc3ccccc3)[nH]c(=O)c2c1C	1.1%	4	-15	8.5	2	-1.5
CC(=O)c1ccc(NC(=O)Cn2cc(S(=O)(=O)Cc3cccc(Cl)c3)c3ccccc32)cc1	7.6%	.	-4	.	.	0.5
NC1(C(=O)O)CC1	0.7%&-1.0%	-4	-13	-3.3	-9	-0.2
[N-]=[N+]=NC1CC(CO)OC1n1ccc(=O)[nH]c1=O (configuration not stated)	3.7%	2	-3	3.2	3	0.1
Cc1nnc(SCC(=O)N/N=C/c2cn(-c3ccccc3)nc2-c2ccc(F)cc2)n1-c1ccccc1	8.1%	10	-7	-0.7	9	0.1
O=C(/C=C/c1c(Cl)nc2ccccn12)N1CCCCC1	0.9%	-15	-1	-5.1	-2	-0.6
COc1ccc(C(=O)Nc2ccc3oc(-c4cccc5c(Br)cccc45)nc3c2)cc1	2.6%	.	-25	.	.	-0.2
COc1ccc2c(c1OC)C(=O)OC2Nc1ncccc1C (configuration not stated)	7.4%	3	28	-4.5	-3	-0.2
CC(OC(=O)c1ccccc1NCCO)C(=O)NCC(=O)Nc1ccc(F)c(F)c1F (configuration not stated)	-1.7%	-15	-14	-6.6	4	0.5
CCOC(=O)c1c(C)n(C)c2ccc(OC)c(NC(=O)CN3CCN(Cc4ccccc4)CC3)c12	-2.2%	-2	-5	0.9	-17	-0.1
Cc1ccc2nc(C3CCCCC3)c(Cc3cccc(F)c3)n2c1	28%	-1	59	-5.8	-12	2.1
NS(=O)(=O)c1ccc(NC(=S)N2CCC(O)CC2)cc1	-0.2%	7	36	-1.8	-13	-0.8
O=C(CN1C(=O)c2cccc3cccc1c23)Nc1cccnc1	0.5%	25	-6	-3.4	1	0.2
O=C(Cc1cn(-c2ccccc2)nc1-c1ccccc1)N1CCCCC1	0.5%	15	10	-5.1	-10	0.7
Cc1ccc(NC(=O)CCc2nnc3ccc(N4CCC5(CC4)OCCO5)nn23)cc1F	-0.9%	1	-3	-5.1	-22	-0.7
Cc1cccc(CCNC(=O)CC2C(=O)NCCN2CC2CCCCC2)n1 (configuration not stated)	-1.2%	-4	5	-3.6	-3	2.0
Cc1nn(CC(=O)Nc2c(F)c(F)cc(F)c2F)c(=O)c2cccn12	-1.3%	-1	20	-2.2	-7	-0.9

Structures from the list above containing an aryl thioether with sulfur outside any ring:
SMILES	PINK1 modulator	Six1-Eya2 inh	TRPML1 blocker	D2 ag	D2 PAM	TRPML1 ag
C=CCn1c(SCC(=O)Nc2nnc(CC)s2)nnc1-c1ccco1	-1.5%	-2	7	-2.3	6	0.2
O=C(O)c1ccc(Sc2nnc(-c3cccc(Br)c3)o2)c([N+](=O)[O-])c1	-2.7%	-1	-6	-0.4	8	0.0
CCCCSc1nnc(C)c(=O)[nH]1	-1.0%	0	0	-3.5	3	-0.6
CCOc1ccc(CCNC(=O)CSc2n[nH]c(N)n2)cc1OCC	2.9%	2	11	-2.1	-27	0.0
CCOC(=O)c1sc2nc(CSc3ccccc3)[nH]c(=O)c2c1C	1.1%	4	-15	8.5	2	-1.5
Cc1nnc(SCC(=O)N/N=C/c2cn(-c3ccccc3)nc2-c2ccc(F)cc2)n1-c1ccccc1	8.1%	10	-7	-0.7	9	0.1
